Polio RdRp inh: inhibitors of poliovirus RNA polymerase binding and polymerization; P03300; poliovirus polymerase elongation, fluorescence polarization; stronger effect = lower value; % elongation, % (compound at 16.7 µg/mL); 0.66% of 150,000 active; AID 588519; in the data active means % elongation below about 90%; further: some results filed as inactive read as strong as hits
Target sequence (P03300 1749-2209 limits assumed): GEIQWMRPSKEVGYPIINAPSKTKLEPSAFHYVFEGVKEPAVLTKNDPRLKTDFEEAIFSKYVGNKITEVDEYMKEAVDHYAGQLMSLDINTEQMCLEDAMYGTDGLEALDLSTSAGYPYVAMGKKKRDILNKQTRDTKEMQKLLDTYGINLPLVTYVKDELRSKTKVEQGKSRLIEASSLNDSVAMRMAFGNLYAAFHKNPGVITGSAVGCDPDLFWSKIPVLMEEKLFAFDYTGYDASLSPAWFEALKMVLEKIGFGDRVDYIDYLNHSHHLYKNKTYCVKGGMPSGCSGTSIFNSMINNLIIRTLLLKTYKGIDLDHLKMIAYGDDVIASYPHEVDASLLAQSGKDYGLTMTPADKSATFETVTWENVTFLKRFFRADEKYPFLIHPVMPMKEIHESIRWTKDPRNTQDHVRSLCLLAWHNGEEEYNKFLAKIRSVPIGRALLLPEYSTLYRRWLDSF
Mtb MenB inh: inhibitors of Mycobacterium tuberculosis MenB enzyme. P9WNP5. inhibition, %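 (about 12 µg/mL by stock and volumes)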. 0.43% of 100,000 active. AID 540299. MenB enzyme assay, absorbance read-out; some hits fall short of the stated cut;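 active means mean of two replicates above 30%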;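 further: 0% = no compound and 100% = wells with inactive enzyme; the first replicate is given; strong numbers were not always called active; inactives centre near -10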
MbtI inh: inhibitors of Mycobacterium tuberculosis siderophore enzyme MbtI | P9WFX0 | purified MbtI enzyme, fluorescence intensity read-out | inhibition, %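 (about 17 µg/mL by stock and volumes)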 | 0.89% of 100,000 active | AID 493033;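 active means above 50% in both replicates, above 80% if mildly self-fluorescent; inactive means the rest, strongly fluorescent compounds included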;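 further: 0% = mean of negative and 100% = mean of positive controls; one replicate is shown; some compounds called inactive have numbers as strong as hits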
Target sequence (P9WFX0 whole entry, looked up): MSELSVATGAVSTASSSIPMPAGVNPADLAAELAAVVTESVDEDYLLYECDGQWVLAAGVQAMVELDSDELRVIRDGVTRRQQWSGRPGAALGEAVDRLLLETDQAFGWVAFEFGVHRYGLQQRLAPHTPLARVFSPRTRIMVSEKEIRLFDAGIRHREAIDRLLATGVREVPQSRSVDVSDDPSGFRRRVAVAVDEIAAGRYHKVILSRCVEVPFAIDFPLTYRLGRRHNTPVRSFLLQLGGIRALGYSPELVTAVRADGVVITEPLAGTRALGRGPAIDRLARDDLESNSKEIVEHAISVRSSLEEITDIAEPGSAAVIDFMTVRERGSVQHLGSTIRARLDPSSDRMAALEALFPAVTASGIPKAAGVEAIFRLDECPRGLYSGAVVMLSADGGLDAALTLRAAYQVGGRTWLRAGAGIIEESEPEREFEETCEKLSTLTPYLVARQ
Polio RdRp inh intensity: further read-out of Polio RdRp inh, marked with its call; % elongation; measured here: total intensity read-out; formula for this scale not given here;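 total fluorescence in place of polarization; lower means less elongation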
An asterisk follows results filed as active; . = no result given; & = joins results of further samples.

SMILES	Polio RdRp inh	Polio RdRp inh intensity	Mtb MenB inh	MbtI inh
CC(C)C(=O)NCCc1c[nH]c2ccccc12	101.0	102.0	-9.4	-23.8
Cc1cc(NC(=O)Cn2c(=O)n(CC3CCC(C(=O)NC4CCCC4)CC3)c(=O)c3ccccc32)n[nH]1 (configuration not stated)	102.0	105.0	-24.8	7.8
CC(C)N(C(=O)CSc1nc2ccc(S(N)(=O)=O)cc2[nH]1)c1ccccc1	104.0	105.0	-10.9	2.3
CCCCNC(=O)C1=C(C)C(=O)OC12CCCCCC2	100.0	103.0	9.8	-8.8
CC(NC1CC2CC=CC21)c1ccc(-n2ccnc2)cc1 (configuration not stated)	99.0	98.0	-3.2	10.6
CCn1c(O)c(N=N)c2ccccc21	100.0	104.0	-28.3	2.2
COc1ccc(C/C(N)=N/OC(=O)Cc2ccccc2)cc1	102.0	103.0	14.0	-18.5
CCOC(=O)C(C#N)C(c1ccc(F)cc1)c1ccco1 (configuration not stated)	107.0	118.0	-16.6	-1.4
CCN(CC)C(=O)CSc1nnc(-c2cccnc2)n1-c1ccccc1	101.0	103.0	5.4	1.1
COc1ccc(OCNC(=O)Nc2nncs2)cc1	.	.	-17.4	0.1
COC(=O)c1sc2ncccc2c1O	99.0	93.0	-6.8	-1.1
Cc1nc2ccccc2c(=O)n1-c1cccc(O)c1	106.0	99.0	-74.9	-11.3
CSc1ccccc1NC(=S)NC1CC1	104.0	106.0	-16.4	-13.6
Cc1nc(SCc2ccc(C(F)(F)F)cc2)c2c(=O)n(C)c(=O)n(C)c2n1	103.0	108.0	-21.0	-9.7
COCCN(Cc1nnc(-c2cccs2)o1)C(=O)C1CCN(S(=O)(=O)c2ccccc2)CC1	104.0	111.0	-11.0	-8.8
CCOc1ccc2nc(NC(=O)CN3CCN(S(=O)(=O)c4ccc(F)cc4)CC3)sc2c1	108.0	111.0	-16.4	2.9
CCOC(=O)C1CCN(c2ncnc3sccc23)CC1	109.0	110.0	-7.5	-5.7
O=C(OCN1C(=O)c2ccccc2C1=O)c1ccc2c(=O)n3c(nc2c1)CCC3	106.0	99.0	-10.3	-5.2
Cn1c(Cc2cccs2)nnc1SCC(=O)N1CCNC1=O	97.0	97.0	-13.2	1.1
c1ccc(CNc2ccc(-c3nc4ncccc4o3)cc2)nc1	103.0	100.0	-40.1	91.2
CC(C)N=C1SC(CC(=O)Nc2ccccc2)C(=O)N1C(C)C (configuration not stated)	106.0	100.0	-57.8	-3.9
CCOC(=O)c1ccccc1NC(=O)c1nc(-c2ccc(C)cc2)n2c1CCCCC2	99.0	104.0	-7.1	6.4
Cn1c(O)c(C=NC2CCCCCC2)c(=O)[nH]c1=S	99.0	102.0	7.3	-8.4
CC(=O)Nc1ccc(S(N)(=O)=O)cc1	103.0	106.0	.	-14.7
CCCCC(=Nc1ccccc1)C1=C(O)CCCC1=O	100.0	103.0	.	-2.1
Further results follow.
SMILES	Polio RdRp inh	Polio RdRp inh intensity	Mtb MenB inh	MbtI inh
CSc1sc(C(=O)OC(C)C)c2c1C(=O)CC(C)(C)C2	100.0	103.0	3.9	-5.5
CS(=O)(=O)NC1c2cccc3cccc(c23)C1N1CCOCC1 (configuration not stated)	103.0	101.0	-16.4	-0.2
COc1ccc(C(=O)COC(=O)c2ccc3c(=O)n4c(nc3c2)CCCCC4)c(OC)c1	106.0	110.0	-17.9	-6.8
CCSc1nnc2n(Cc3ccccc3OC)c(=O)c3ccccc3n12	100.0	108.0	-32.5	10.8
Cc1ccc(-c2noc(CCC(=O)NCCN3CCN(c4cccc(Cl)c4)CC3)n2)cc1	102.0	106.0	-17.2	-6.6
Cc1ccc(-c2nc(C)sc2CC(=O)NC2=NCCS2)cc1	98.0	100.0	-58.2	-17.2
Cc1ccc2c(COC(=O)CN3C(=O)C4CC=CCC4C3=O)cc(=O)oc2c1 (configuration not stated)	103.0	109.0	-10.4	7.2
O=C(NC(=S)Nc1ccccc1)c1ccc2nonc2c1	101.0	96.0	-16.0	-1.6
CCCc1cc2c(c(NC(C)=O)n1)c(=O)oc1ccccc12	107.0	109.0	-3.3	.
Nn1c(SCCCC(=O)c2ccc(F)cc2)nnc1-c1cccnc1	102.0	90.0	17.6	-12.2
CC(C)(C)C(=O)CSc1nnc(Nc2ccccc2)s1	102.0	102.0	-37.2	-5.8
CCOC(=O)Cc1cc(=O)[nH]c(/N=C(\N)Nc2ccc(C)cc2C)n1	105.0	103.0	-16.1	-3.5
CCc1ccc2nc(NC(=O)CCc3c(C)noc3C)sc2c1	.	.	-10.1	9.4
N#CC1(c2nc3ccccc3[nH]2)Cc2ccccc2N2CCCCC21 (configuration not stated)	111.0	128.0	-1.6	-13.7
NCCCSc1ccccc1	103.0	107.0	-12.5	8.7
COc1ccc(Cn2c(=O)[nH]c3cc(C(=O)N4CCN(c5ccc(OC)cc5)CC4)ccc3c2=O)cc1	101.0	104.0	-36.1	-6.0
CCc1c(C)sc(NC(=S)NCc2ccco2)c1C(=O)OC	99.0	100.0	-34.3	32.6
O=C(COc1ccccc1)Nc1nc2cc3c(cc2s1)OCO3	96.0	102.0	-5.1	28.9
CC1CC(C)CN(C(=O)c2cc3sc(Cl)cc3n2C)C1 (configuration not stated)	101.0	105.0	-30.1	-8.1
Cc1ccc(C=Nc2ccccc2Sc2c(C)n[nH]c2C)cc1	102.0	96.0	-16.0	10.9
COC(=O)c1sccc1N/N=C1\C(=O)c2ccccc2N(C)S1(=O)=O	102.0	100.0	5.7	7.3
CC(NC(=O)Nc1ccccn1)N1C(=O)C2C3C=CC(C3)C2C1=O (configuration not stated)	100.0	102.0	-3.0	-9.8
CCC1CCCCN1C(=O)CSC1CCCCC1 (configuration not stated)	104.0	104.0	.	-6.0
CCOc1ccc(NC(=O)Cn2cccc2)cc1	102.0	103.0	-11.9	-10.8
COCC(=O)Nc1c(C)cc(C)cc1C	99.0	101.0	-16.2	15.3

2 of the compounds above, in markdown:
| SMILES | Polio RdRp inh | Polio RdRp inh intensity | Mtb MenB inh | MbtI inh |
| --- | --- | --- | --- | --- |
| CC(C)(C)C(=O)CSc1nnc(Nc2ccccc2)s1 | 102.0 | 102.0 | -37.2 | -5.8 |
| CCOC(=O)Cc1cc(=O)[nH]c(/N=C(\N)Nc2ccc(C)cc2C)n1 | 105.0 | 103.0 | -16.1 | -3.5 |

Compound profiles (already shown). Values in the order: Polio RdRp inh | Polio RdRp inh intensity | Mtb MenB inh | MbtI inh
N#CC1(c2nc3ccccc3[nH]2)Cc2ccccc2N2CCCCC21 (configuration not stated) is listed as 111.0 | 128.0 | -1.6 | -13.7
O=C(NC(=S)Nc1ccccc1)c1ccc2nonc2c1 is listed as 101.0 | 96.0 | -16.0 | -1.6
Cc1ccc2c(COC(=O)CN3C(=O)C4CC=CCC4C3=O)cc(=O)oc2c1 (configuration not stated) is listed as 103.0 | 109.0 | -10.4 | 7.2
CCc1c(C)sc(NC(=S)NCc2ccco2)c1C(=O)OC is listed as 99.0 | 100.0 | -34.3 | 32.6
CCOc1ccc(NC(=O)Cn2cccc2)cc1 is listed as 102.0 | 103.0 | -11.9 | -10.8

Continuation.
SMILES	Polio RdRp inh	Polio RdRp inh intensity	Mtb MenB inh	MbtI inh
CCCNC(=S)N1CCC(NC(=O)Nc2ccc(C)cc2)CC1	103.0	105.0	-38.3	-8.6
COC(=O)C1=C(C)N(C(C)C)C(=O)C1(NC(=O)C1CCCCC1)C(F)(F)F (configuration not stated)	97.0	101.0	-18.3	7.4
CCOC(=O)C(Cc1ccccc1)C(=O)Nc1nccs1 (configuration not stated)	103.0	100.0	-27.4	8.7
Cn1c(=O)oc2cc(S(=O)(=O)NCCN3CCC(Cc4ccccc4)CC3)ccc21	98.0	103.0	0.0	4.2
O=C(NCC(O)c1ccccc1)Nc1cccc(C(F)(F)F)c1 (configuration not stated)	97.0	102.0	-7.6	-1.9
COC(=O)c1ccc(/N=C/N(C)C)s1	104.0	106.0	-28.8	-7.7
COc1ccc2c(c1)-c1ccccc1S(=O)(=O)N2C	103.0	105.0	.	-4.2
O=C(CSc1c2c(nc3cc(Cl)ccc13)CCCC2)NCCCN1CCCCCC1	104.0	102.0	-24.9	29.4
COc1ccc(OC)c(S(=O)(=O)NC2CCCCNC2=O)c1 (configuration not stated)	102.0	97.0	8.2	23.4
O=C(CSc1nncc2ccccc12)Nc1ccccc1	96.0	94.0	-26.9	.
N#CC(CC(=O)N1CCCC1)(CC(=O)N1CCCC1)c1nc2ccccc2s1	106.0	102.0	-16.7	8.8
Cc1cc(C)nc(SCC(=O)OCC(=O)Nc2ccc(N3CCCCC3)cc2)n1	105.0	108.0	-20.8	-12.4
Cc1onc(-c2ccccc2)c1-c1nnc(CSc2nnnn2C)o1	109.0	112.0	-9.7	-7.6
CCCCn1c(N)c(N2CCN(Cc3ccccc3)CC2)c(=O)[nH]c1=O	102.0	98.0	-2.6	-7.7
CCN1C2=C(C(=O)CCC2)C(c2cccc(OC)c2)C2=C1CCCC2=O	104.0	105.0	-128.7	59.6
CCOC(=O)c1sc2nc(NC(=O)Cc3ccccc3)sc2c1C	102.0	101.0	-8.7	6.3
O=C(O)CCCCN1Cc2ccccc2C1	101.0	102.0	25.5	-3.2
COc1ccc(CCCc2n[nH]c(=S)o2)c(C)c1	102.0	103.0	-46.7	5.2
O=[N+]([O-])c1cccc2c(Br)[nH]nc12	102.0&99.0	100.0&99.0	-10.3	-1.9
CC(C)=CC(=O)Nc1ccc2c(c1)OCO2	101.0	102.0	-18.0	-0.9
C=C(C)c1cccc(C(C)(C)NC(=O)Nc2ccc3c(c2)oc2ccccc23)c1	102.0	109.0	3.3	-1.6
COc1cc(-c2nc3ccccc3c(=O)n2N)cc(OC)c1OC	101.0	100.0	6.2	-2.2
COCCNc1cn[nH]c(=O)c1Cl	100.0	98.0	-10.8	12.0
CCCN(C#N)c1nc(NC(C)C)nc(NC(C)C)n1	107.0	113.0	4.5	.
Cc1cc(C)c(S(=O)(=O)/N=C2\SCCN2S(=O)(=O)c2c(C)cc(C)cc2C)c(C)c1	101.0	107.0	-18.9	0.4
Continuation:
SMILES	Polio RdRp inh	Polio RdRp inh intensity	Mtb MenB inh	MbtI inh
CC(C)=NOC1=NS(=O)(=O)c2ccccc21	104.0	101.0	-6.6	-4.2
Fc1ccc(CNCc2cccn2-c2nnc(N3CCCC3)s2)cc1	100.0	101.0	2.3	-1.4
O=C(Nc1ccccc1)c1c(F)cccc1F	102.0	104.0	-12.2	-5.0
COc1ccc(CNC(=O)CCn2cnc3c2c(=O)n(C)c(=O)n3C)cc1	105.0	100.0	-56.0	-8.4
Cc1nccc(-c2cccc(C#N)c2)n1	103.0	106.0	11.8	2.6
N#Cc1c2c(c(NCc3ccccn3)n3c1nc1ccccc13)CCCC2	99.0	103.0	-39.0	10.4
Cc1ccccc1C(=O)NCCn1cc(SCC(=O)Nc2nccs2)c2ccccc21	99.0	107.0	-1.2	-0.9
COc1ccc(CCNC(=O)c2ccc3c(SCC(=O)O)c4c(nc3c2)CCCC4)cc1OC	103.0	108.0	-17.1	-0.8
COc1ccc(S(=O)(=O)N(C)c2ccc(C(=O)N3CCN(c4ccccc4F)CC3)cc2)cc1OC	101.0	103.0	-17.9	-14.7
CC1CCC(NC(=O)c2ccc(NC(=O)c3ccc(=O)[nH]c3)cc2)CC1 (configuration not stated)	103.0	97.0	-0.9	5.7
O=C(O)c1ccccc1/C=N/NC(=O)C1CCCCC1	101.0	105.0	-13.2	-2.5
C=Cc1nc2c(cnn2-c2ccccc2)c(=O)[nH]1	99.0	102.0	0.2	66.0
NS(=O)(=O)c1ccc(NC(=O)CSCC(=O)O)cc1	103.0	104.0	-7.6	4.2
Cc1oc2c(c1C(=O)NCCCn1ccnc1)C(=O)c1ccccc1C2=O	98.0	98.0	-10.2	16.9
Cc1ccc(S(=O)(=O)N2CN3CN(C2)CN(S(=O)(=O)c2ccc(C)cc2)C3)cc1	101.0	104.0	9.4	0.3
CN(C(=O)c1c(Cl)nc2sccn12)C1CCCCC1	105.0	104.0	.	1.3
c1ccc2c(CNc3ccc(CNc4ncn[nH]4)cc3)cccc2c1	105.0	101.0	-0.1	.
COc1ccccc1OCCC(=O)Nc1nc(C)cs1	104.0	109.0	-19.3	-18.1
CC(C)NC(=O)NCc1cccn1Cc1ccccc1	101.0	103.0	5.7	-21.5
O=C(CCNS(=O)(=O)c1cccc2nsnc12)NC1CCCCC1	99.0	103.0	1.1	16.1
CCCCCC(=O)/C=C/C=C\CCCCCCCC(=O)O	99.0	103.0	.	-14.8
Cc1cccc2cc(CN(Cc3ccco3)C(=O)c3ccccc3)c(=O)[nH]c12	102.0	102.0	35.9	10.8
CC(C)CC(NS(=O)(=O)c1ccccc1)C(=O)O (configuration not stated)	106.0	101.0	-9.2	-11.8

Molecules shown so far that contain a CF3 group:
SMILES	Polio RdRp inh	Polio RdRp inh intensity	Mtb MenB inh	MbtI inh
Cc1nc(SCc2ccc(C(F)(F)F)cc2)c2c(=O)n(C)c(=O)n(C)c2n1	103.0	108.0	-21.0	-9.7
COC(=O)C1=C(C)N(C(C)C)C(=O)C1(NC(=O)C1CCCCC1)C(F)(F)F (configuration not stated)	97.0	101.0	-18.3	7.4
O=C(NCC(O)c1ccccc1)Nc1cccc(C(F)(F)F)c1 (configuration not stated)	97.0	102.0	-7.6	-1.9

Only MbtI inh, Polio RdRp inh intensity and Polio RdRp inh, for 2 of the compounds above:
| mol | MbtI inh | Polio RdRp inh intensity | Polio RdRp inh |
| --- | --- | --- | --- |
| Cc1cccc2cc(CN(Cc3ccco3)C(=O)c3ccccc3)c(=O)[nH]c12 | 10.8 | 102.0 | 102.0 |
| CC(C)CC(NS(=O)(=O)c1ccccc1)C(=O)O (configuration not stated) | -11.8 | 101.0 | 106.0 |
